StopGo FLuc: FMDV 2A StopGo reporter, firefly signal; Potency, µM (titrated, usually from 57.5 µM), for the others: at the top dose signal change, negative = less light; hit rate 0.23% among 120,000; HEK cells with a luciferase reporter of 2A StopGo recoding; AID 1745856; active = well fitted falling curve with a large enough effect; inconclusive = small, poorly fitted or top-dose-only effect; inactive = no such curve, though single readings can be large or run the other way; also: nearly all actives have a fitted effect of over 60% in size; overnight with compound
2A Renilla: FMDV 2A StopGo reporter, Renilla signal | HEK cells with a luciferase reporter of 2A StopGo recoding | Potency, µM (highest dose often 57.5 µM), without a hit: top-dose signal change, negative = less light | hit rate 0.32% among 120,000; active means well fitted falling curve with a large enough effect; inconclusive means small, poorly fitted or top-dose-only effect; inactive means no such curve, though single readings can be large or run the other way; also: nearly all actives have a fitted effect of over 55% in size; overnight with compound
* = called active by the depositor; ? = inconclusive; & = joins results of further samples; [ ] = dose if it differs, or a comment. % is scaled to controls: 0 for no effect and ±100 for the full control effect; potency is read from the fitted curve at half-maximal effect.

compound	StopGo FLuc	2A Renilla
O=C(Cc1ccccc1Cl)N1CCN(c2ncnc3nc[nH]c23)CC1	3%	-1%
CC(=O)c1cc(-c2ccccc2)n(CC(=O)NC2CCCCCC2)c1C	-8%	-5%
COc1cc(CSc2ncc(CO)n2Cc2ccc(C)cc2)cc(OC)c1	-20%	-7%
N#Cc1cccnc1NCCNC(=O)c1cnc2ccccc2n1	175%[activator]	1%
CCCc1oc2ccc(NS(=O)(=O)c3ccc(OC)cc3)cc2c1C(=O)OCC	4%	297%[activator]
O=C(CCNc1cccc(F)c1)c1cc2ccccc2o1	102%[activator]	34%[activator]
CCc1nnc(NC(=O)c2nn(Cc3ccccc3)c(=O)c3ccccc23)s1	7%	5%
O=C(COC(=O)c1cc([N+](=O)[O-])ccc1Cl)Nc1ccc2c(c1)OC(F)(F)O2	21%	-2%
COc1ccc(-c2oc(=O)oc2-c2ccc(OC)c(OC)c2)cc1OC	12%	5%
Cc1ccc(N2CC(C(=O)Nc3ccc(N(C)C)cc3)CC2=O)cc1Cl (stereo not drawn)	78%[activator]	5%
COc1ccc(NC(=O)c2ccc3c(c2)OCC(=O)N3)cc1	89%[activator]	13%
COc1ccc(-n2c(=O)c3c4c(sc3n3c(SC(C)C)nnc23)COC(C(C)C)C4)cc1 (stereo not drawn)	-5%	2%
CCc1nc2ccc(C(=O)NCc3ccccc3C)cc2nc1CC	-6%&13%	52%&4%[activator]
C=CCNC(=O)COC(=O)c1c(C)c(-c2ccccc2)nc2ccccc12	12%	21%
COc1ccc(CNC(=O)c2ccc3c(c2)N(Cc2ccccc2)C(=O)c2ccccc2S3=O)cc1 (stereo not drawn)	6%	2%

More structures follow.
compound	StopGo FLuc	2A Renilla
CC(N=C(NC#N)Nc1ccncc1)C(C)(C)C (stereo not drawn)	12%[11.5 µM]	7%
CC(C)Oc1cc(Br)ccc1C(=O)O	15%	11%
CC(C)C(=O)N(Cc1ccccc1)Cc1cc2ccccc2[nH]c1=O	-7%	-15%
O=C(CSc1ncnc2nc[nH]c12)Nc1ccccc1Cl	2%	-17%
COc1cc(C(=O)Oc2ccc3c(=O)c(Oc4ccc(C(C)(C)C)cc4)coc3c2)cc(OC)c1OC	-23%	12%
CCCN1C(=O)C2(C(C(=O)c3ccc(C)o3)=C(O)C(=O)N2CCN(C)C)c2ccccc21 (stereo not drawn)	-6%	-16%
Cc1nc2ccc(S(=O)(=O)NC(C(=O)NCc3ccc(Cl)cc3)C(C)C)cc2s1 (stereo not drawn)	-23%	0%
CC(C(=O)Nc1ccc(OC(F)(F)F)cc1)N1Cc2ccccc2C1=O (stereo not drawn)	?	39%[activator]
CC(=O)c1ccc(S(=O)(=O)N2CCN(C(=O)c3cc(C)no3)CC2)cc1	-10%	-14%
O=C(CSc1nc2ccccc2c(=O)[nH]1)N1CCCCC1	83%[activator]	-2%
Cc1nc(NC(=O)COc2ccc(Br)cc2)sc1C	80%[activator]	13%
Cc1ccc(NC(=O)C(=O)NCCN2CCN(S(=O)(=O)c3ccc4ccccc4c3)CC2)cc1	-2%	0%
CC(Sc1ccccn1)C(=O)Nc1cccc(Cl)c1 (stereo not drawn)	195%[activator]	12%
Brc1ccc(C=Nc2ccccc2Cc2ccccc2)cc1	-5%	1%
COc1ccc(-c2nc(C#N)c(NCC(c3cccs3)N(C)C)o2)cc1 (stereo not drawn)	44%[activator]	8%

An excerpt from above in order of length of the SMILES, ascending:
compound	StopGo FLuc	2A Renilla
O=C(CSc1ncnc2nc[nH]c12)Nc1ccccc1Cl	2%	-17%
CC(C)C(=O)N(Cc1ccccc1)Cc1cc2ccccc2[nH]c1=O	-7%	-15%
CC(=O)c1ccc(S(=O)(=O)N2CCN(C(=O)c3cc(C)no3)CC2)cc1	-10%	-14%
CCCN1C(=O)C2(C(C(=O)c3ccc(C)o3)=C(O)C(=O)N2CCN(C)C)c2ccccc21 (stereo not drawn)	-6%	-16%
COc1cc(C(=O)Oc2ccc3c(=O)c(Oc4ccc(C(C)(C)C)cc4)coc3c2)cc(OC)c1OC	-23%	12%

(listing goes on)
compound	StopGo FLuc	2A Renilla
Cc1ccc(C(=O)N2CCN(c3ccc(F)cc3)CC2)cc1NC(=O)c1nsc2ccccc12	23%	-9%
Cc1ccc(S(=O)(=O)N(Cc2ccccc2)c2nc3nc(C)cc(C)n3n2)cc1	-24%	212%[activator]
CCCn1c(N)c(N(CCOC)C(=O)c2ccc(OC(F)(F)F)cc2)c(=O)[nH]c1=O	4%	10%
COc1ccc2sc(N(Cc3cccnc3)C(=O)CCc3ccccc3)nc2c1	18%	31%[activator]
CCC(NC(=O)c1ccncc1)C12CC3CC(CC(C3)C1)C2 (stereo not drawn)	3%	-1%
Cc1ccc(S(=O)(=O)N(C)C)cc1NC(=O)COC(=O)c1ccccc1C(F)(F)F	-8%	9%
CN=C(NC)NCc1ccc(Br)s1	-7%	0%
CCCCCC(C)NC(=O)/C=C/c1ccc(C)cc1 (stereo not drawn)	49%[activator]	5%
Cn1c(=O)n(C)c2cc(CNCCc3ccccc3)ccc21	-12%	-9%
Cc1cc2c(c(=O)n1Cc1cccs1)C(c1cccs1)C(C#N)=C(N)O2 (stereo not drawn)	-1%	6%
CCOC(=O)c1noc2nc(C)n(Cc3nc(-c4ccc(OC)c(OC)c4)oc3C)c(=O)c12	1%	1%
Cc1cc(=O)oc2cc(NC(=O)CCCOc3ccccc3)ccc12	30%[activator]	-2%
CCc1ccc(-c2nc(-c3nc(-c4cccs4)cs3)sc2C)cc1	102%[activator]	0%
Cc1ccc(CNCc2ccccc2C(F)(F)F)cc1	5%	-2%
COc1ccc(Cn2c(=O)n(-c3ccc(OC)cc3)c(=O)c3c2c2cc(OC)ccc2n3C)cc1	-15%	4%

Further records follow:
compound	StopGo FLuc	2A Renilla
O=C(Cn1c(-c2cccs2)cc2ccccc21)N1CCN(c2ccccc2F)CC1	0%	-12%
CCOC(=O)c1c(NC(=O)/C=C/c2ccc(OCC)cc2)sc2c1CCC2	-2%	0%
Cc1ccc(CSc2nnc3[nH]c(=O)cc(-c4ccccc4)n23)cc1	0%&-7%	12%&-1%
O=C(Cn1c(=O)nc(-c2ccccc2)c2ccccc21)N1CCN(c2ccc(F)cc2)CC1	7%	-3%
O=C(OCC(=O)c1c[nH]c2ccccc12)c1ccc(Cl)c([N+](=O)[O-])c1	46%[activator]	-2%
Cc1ccc(NC(=O)C2CCCN(C(=O)c3ccc(Cl)cc3)C2)cc1C (stereo not drawn)	?	?
Nn1c(SCC(=O)NCCc2ccc(F)cc2)nnc1-c1ccco1	20%	-2%
CCCS(=O)(=O)c1c(S(=O)(=O)CCC)c2cc(C(C)(C)C)ccn2c1C(=O)c1ccccc1	?	-1%
CCCOc1cccc(C(=O)Nc2cccc3ccc(C)nc23)c1	-5%	-8%
c1ccc2c(NC(C3CC3)C3CC3)nc(-c3ccncc3)nc2c1	-22%	-27%
CCN1C(=O)c2ccccc2S(=O)(=O)c2ccc(C(=O)NCc3ccccc3OC)cc21	-6%	28%
CC(=O)N(c1nc(C)c(C(=O)Nc2ccc3cc[nH]c3c2)s1)C1CCCC1	27%	-15%
O=C(CCC1CCCC1)N1CCN(C(=O)c2cc(=O)[nH]c3ccccc23)CC1	-10%	-7%
CC(c1ccccc1)N(C)C(=O)COC(=O)c1cc2ccccc2[nH]1 (stereo not drawn)	0%	12%
CCOC(=O)CSc1nc2cc3c(cc2c(=O)n1CCCC(=O)NCc1ccc2c(c1)OCO2)OCO3	-7%	1%

Additional entries:
compound	StopGo FLuc	2A Renilla
O=C(CNC(=O)N1CC(=O)Nc2ccccc21)Nc1ccc(Br)cc1F	8%	-4%
COCCOC(=O)C(C#N)c1nc2ccccc2nc1N1CCN(c2ccccc2OC)CC1 (stereo not drawn)	26%	3%
CC(=O)N1CCN(c2ccc([N+](=O)[O-])c(-n3nc(-c4ccc(C)cc4)c4ccccc4c3=O)c2)CC1	-8%	12%
COc1ccc(C(=O)Nc2cc(C)c(O)c(-c3nc4ccccc4o3)c2)cc1	-2%	-11%
Cc1ccc2nc(C)c(C(=O)NCCCOCC(C)C)cc2c1	-13%	-10%
CCCNC(=O)CN(C)C(=O)NC(c1ccc(CC)cc1)C(C)C (stereo not drawn)	9%	-9%[1.06 µM]
COc1ccc(-c2nn(-c3ccccc3)cc2C2=NN(S(C)(=O)=O)C(c3ccco3)C2)cc1 (stereo not drawn)	11%	64%[activator]
CCN(C(=O)c1cn(C)c(=O)c2ccccc12)c1cccc(C)c1	-5%&39%	18%&0%
CCOc1ccccc1NC(=O)CCc1c(C)nc2c3cccnc3nn2c1C	-5%	-8%
CCc1ccc2oc(-c3ccc(CN)cc3)nc2c1	5%	9%
Cc1c(CC(=O)NC2CC2)c(=O)oc2cc(O)c(Cl)cc12	-4%	-8%
CC(=O)NC(C)c1ccc(O)cc1 (stereo not drawn)	13%	-1%
COc1ccc(CNC(=O)c2cc(C)nc3onc(C)c23)cc1	15%	3%
CCCCOc1ccc(C(=O)N(Cc2ccco2)Cc2ccco2)cc1	15%	17%
Cc1ccc2c(C)c(C(=O)NCC(c3cccs3)N3CCOCC3)oc2c1 (stereo not drawn)	-11%	-14%

Exported with two lines to a compound: entries from further up.
Each structure is followed by: StopGo FLuc | 2A Renilla
- O=C(CNC(=O)N1CC(=O)Nc2ccccc21)Nc1ccc(Br)cc1F
  8% | -4%
- COCCOC(=O)C(C#N)c1nc2ccccc2nc1N1CCN(c2ccccc2OC)CC1 (stereo not drawn)
  26% | 3%
- CC(=O)N1CCN(c2ccc([N+](=O)[O-])c(-n3nc(-c4ccc(C)cc4)c4ccccc4c3=O)c2)CC1
  -8% | 12%

Next compounds
compound	StopGo FLuc	2A Renilla
Cc1cccc(NC(=S)N/N=C2/CCCC(C)C2)c1 (stereo not drawn)	0%	51%[activator]
CCCSc1nc2c(c(=O)[nH]c(=O)n2C)n1CC(O)COc1ccccc1 (stereo not drawn)	-13%	-12%
COC(=O)/C(C#N)=C/c1cc(Br)c(OC)cc1OC	-1%	4%
O=C(CCc1c[nH]c2ccccc12)Nc1ccccc1F	180%[activator]	-1%
O=C(COC(=O)c1cc(=O)c2ccccc2o1)Nc1ccc(F)cc1	-18%	-17%
COc1ccc(NC(=O)CCCn2c(=O)c3cccn3c3cccnc32)cc1Cl	6%	2%
COc1cc(OC)cc(-n2nnc(-c3nc(-c4ccccc4Cl)no3)c2N)c1	93%[activator]	43%[activator]
Cc1nc2c(c(C)c1CCC(=O)NCCN1CCN(C)CC1)c(=O)n(C)c(=O)n2C	-1%	-5%
Cn1c(COc2ccc3c(c2)CCCC3)nnc1SCC(=O)N1CCN(c2ccccc2)CC1	8%	12%
CC(C)(C)c1nc(CN2CCN(C(=O)N3CCCCC3)CC2)no1	3%	-11%
Cc1[nH]c2ccccc2c1/C=C/c1nc2ccccc2c(=O)n1C	176%[activator]	0%
CN(CC(=O)NC1(C#N)CCCCC1)C(c1ccccc1)c1ccc(F)cc1 (stereo not drawn)	?	?
Nc1cccc(C(=O)NCc2cccnc2)c1	8%	2%
COc1ccccc1-c1nnc(SCC(=O)N(C2CCCCC2)C2CCCCC2)n1N	1%	3%
COc1cccc(-c2nc(SCc3ccc(C)cc3)n3[nH]c(=O)cc3n2)c1	-4%	-2%
CSC(C)C(=O)NCc1ccc(C)s1 (stereo not drawn)	1%	-1%

A second format for part of the listing above:
The line under a structure holds: StopGo FLuc, 2A Renilla
- COc1ccc(NC(=O)CCCn2c(=O)c3cccn3c3cccnc32)cc1Cl
 : 6%, 2%
- COc1cc(OC)cc(-n2nnc(-c3nc(-c4ccccc4Cl)no3)c2N)c1
 : 93%[activator], 43%[activator]
- Cc1nc2c(c(C)c1CCC(=O)NCCN1CCN(C)CC1)c(=O)n(C)c(=O)n2C
 : -1%, -5%
- Cn1c(COc2ccc3c(c2)CCCC3)nnc1SCC(=O)N1CCN(c2ccccc2)CC1
 : 8%, 12%
- CC(C)(C)c1nc(CN2CCN(C(=O)N3CCCCC3)CC2)no1
 : 3%, -11%

Screens as filed in PubChem.
